TAR Tat displ – HIV-1 TAR-Tat binding disruption | HIV-1 TAR RNA, Tat peptide displacement FRET; active compounds read high | z-score (test concentration not listed) | actives 0.6% (n = 100,000) | AID 1259389;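 also: score is relative to mean and SD of negative controls; some compounds called inactive have numbers as strong as hits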
CDC25B CDK2 inh – human CDC25B-CDK2/CyclinA binding inhibition; P30305+P24941; HTRF CDC25B-CDK2/CyclinA binding, anti-His/anti-Flag; active compounds read high; z-score (no concentration beside the values); actives 0.72% (n = 94,000); AID 1259370;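 also: score is relative to mean and SD of negative controls; strong numbers were not always called active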
Active calls of the source: *; · = no result given.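 The calls were made as follows: active = z-score from 3 up in half or more of its runs; inactive = the rest.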

entry | Structure | TAR Tat displ | CDC25B CDK2 inh
1 | CCOc1nc(C)nc(NC(=O)NS(=O)(=O)c2ccccc2Cl)n1 | -0.48 | -0.46
2 | CCOC(=O)c1c(NC(=O)c2cc3ccccc3o2)sc(C)c1C | 0.88 | -0.41
3 | CCOC(=O)N1CCc2c(sc3c2C(=O)NC(/C(C)=C/c2ccccc2)N3)C1 (configuration not stated) | 0.5 | 2
4 | CSc1ccc(C2c3c(-c4ccccc4O)n[nH]c3C(=O)N2CCO)cc1 (configuration not stated) | 1.54 | 0.3
5 | COc1ccc(-c2c3c(=O)n(C)c(=O)n(C)c3cn2-c2ccc(F)cc2)cc1 | · | -0.28
6 | COc1ccc(/C(C)=N/OC(=O)c2ccc([N+](=O)[O-])cc2)cc1CN1CCOCC1 | · | -0.38
7 | Cc1ccc(-c2cnc(NCc3ccc(F)cc3)n2C)cc1C | -0.01 | 0.7
8 | Cc1ccc(Nc2cnn(-c3nc4ccccc4o3)c(=O)c2Cl)cc1F | -0.04 | -1.99
9 | CCCCOC(=O)C1=C(C)NC2=C(C(=O)CCC2)C1c1ccc(O)c(OCC)c1 (configuration not stated) | -1.65 | -2.1
10 | CC(C)Cc1nn2c(=O)cc(CN3CCN(c4ncccn4)CC3)nc2s1 | 0.88 | ·
11 | Cc1ccc(CSc2ccc3nnc(CCNS(=O)(=O)c4ccccc4)n3n2)cc1 | 0.37 | ·
12 | COc1ccc(C(=O)OCC2CC(c3ccccc3)=NO2)cc1OC (configuration not stated) | 0.42 | -0.6
13 | COc1ccc(-n2nc3c(c2NC(=O)CC2CCCCC2)CS(=O)(=O)C3)cc1 | 1.42 | ·
14 | CC(C)C(=O)Nc1nnc(S(=O)(=O)N2CCc3ccccc32)s1 | 1.72 | -0.32
15 | COCCNC(=O)Cn1ncn2nc(-c3cccs3)cc2c1=O | 0.94 | -0.44
16 | c1cncc(-c2noc(-c3cc(-c4ccc5ccccc5c4)n[nH]3)n2)c1 | -0.01 | ·
17 | O=C(Nc1cc(F)ccc1F)c1cnc2sc(N3CCOCC3)nn2c1=O | 1.81 | ·
18 | CCOC(=O)c1c(S(=O)(=O)N2c3ccccc3CC2C)c(C)n(C)c1C (configuration not stated) | 2.44 | ·
19 | COc1ccc2nc(NC(=O)c3noc4c3CSc3ccccc3-4)sc2c1 | 0.59 | -1.28
20 | CCCCNc1cc(N2CCN(C(=O)OCC)CC2)c2noc3c2c1C(=O)c1ccccc1-3 | -0.05 | -1.99

(cont.)
entry | Structure | TAR Tat displ | CDC25B CDK2 inh
21 | CSc1ccc(C2C3=C(CCCC3=O)Nc3nc4ccccc4n32)cc1 (configuration not stated) | · | -2.71
22 | O=C(CSc1nccn1C1CCCC1)Nc1ccc(Br)cc1 | 1.11 | ·
23 | Cc1nc(-c2ccc(S(=O)(=O)Nc3ccc(F)c(F)c3)cc2)co1 | 0.03 | ·
24 | O=C(C1CCCN(S(=O)(=O)c2ccc3[nH]c(=O)oc3c2)C1)N1CCc2ccccc21 (configuration not stated) | 0.4 | ·
25 | O=C(Sc1ccc(Cl)cc1)c1ccc(-c2cccs2)s1 | · | -2.59
26 | O=C1CC(c2nc3ccccc3n2CCN2CCOCC2)CN1c1ccc(Br)cc1 (configuration not stated) | 1.15 | -1.07
27 | Cc1ccc(S(=O)(=O)NCc2c(C)nn(C)c2C)cc1 | 1.67 | ·
28 | O=C(NCc1n[nH]c(=O)c2ccccc12)c1ccco1 | 0.87 | ·
29 | O=C(Nc1ccc(Cl)cc1)N1CCCc2ccccc21 | 1.94 | 1.65
30 | Cc1ccc(C)c(S(=O)(=O)NCCc2csc3nc(-c4cccc(F)c4)nn23)c1 | 0.16 | ·
31 | Cc1cc(C)c(C#N)c(SCC(=O)n2nc(C)cc2C)n1 | -1.26 | -1.4
32 | O=C1CN(c2ccc(Br)cc2)C(=O)N1CC(=O)N1CCCc2ccccc21 | -2.52 | -1.79
33 | COc1cccc(-c2nn3c(Cn4nnc5ccccc54)nnc3s2)c1 | 1.88 | -1.13
34 | CCC(C(=O)NC1CCCC1)n1nc(C)n2c(cc3occc32)c1=O (configuration not stated) | -0.29 | 0.82
35 | O=C1Cc2cc(S(=O)(=O)N3CCCC3)ccc2N1 | -0.84 | -1.78
36 | O=C(Cc1scnc1-c1cccs1)N1CCN(c2ccc(F)cc2)CC1 | -0.79 | -0.07
37 | Cc1cc(=O)nc2c3ccccc3n(CC(=O)NC3CCC(C)CC3)n12 (configuration not stated) | -1.14 | -1.08
38 | Cc1ccc(-c2csc3ncn(C(C)C)c(=O)c23)cc1 | 0.1 | -2.14
39 | Cc1ccc(-c2cc(C(=O)Nc3cccc(F)c3)c3ccccc3n2)c(C)c1 | · | -6.99
40 | Nc1nc(-c2cccc3ccccc23)cs1 | -8.38 | -0.22

Record cards, from the list above. Screens in order: TAR Tat displ, CDC25B CDK2 inh
O=C1CC(c2nc3ccccc3n2CCN2CCOCC2)CN1c1ccc(Br)cc1 (configuration not stated) reads 1.15, -1.07
O=C(C1CCCN(S(=O)(=O)c2ccc3[nH]c(=O)oc3c2)C1)N1CCc2ccccc21 (configuration not stated) reads 0.4, ·
Cc1cc(C)c(C#N)c(SCC(=O)n2nc(C)cc2C)n1 reads -1.26, -1.4
Cc1ccc(S(=O)(=O)NCc2c(C)nn(C)c2C)cc1 reads 1.67, ·
Cc1ccc(C)c(S(=O)(=O)NCCc2csc3nc(-c4cccc(F)c4)nn23)c1 reads 0.16, ·

(continued)
entry | Structure | TAR Tat displ | CDC25B CDK2 inh
41 | COc1ccc(-n2ncc3c(NCc4ccc5c(c4)OCO5)ncnc32)cc1 | 2.74 | ·
42 | COc1ccc2c(c1)c(N1CCCC1=O)c(C(=O)Nc1ccc3c(c1)OCCO3)n2C | 0.63 | ·
43 | Cc1ccc(OCc2nc(-c3cccnc3)no2)cc1C | -0.35 | 0.27
44 | Cc1cc(C)n2c(Nc3ccccc3)c(-c3cccs3)nc2n1 | -1.09 | -2.78
45 | COc1ccc(CCN[C@H]2CS(=O)(=O)C[C@@H]2S(=O)(=O)c2ccc(C)cc2)cc1 | -0.06 | -0.96
46 | Cc1ccc2cc3c(nc2c1)N(S(=O)(=O)c1ccc2c(c1)OCO2)CC3 | -2.14 | -0.47
47 | O=C(NCCn1c(-c2ccccc2)nc2ccccc21)NC1CCCC1 | 0.57 | ·
48 | Cc1oc(C)c2c(=O)cc(-c3ccc4c(c3)OCO4)cc(OC(=O)c3cccc(Cl)c3)c12 | 1.79 | 0.02
49 | CC(=O)N1CC(c2cnc(-c3ccccc3)c(C)c2)C=C(C)C1c1ccccc1 (configuration not stated) | · | -3.39
50 | O=C(O)c1ccccc1-n1cnnn1 | -0.92 | -0.54
51 | CCOC(=O)NC(=S)c1cccn1C | · | -1.39
52 | CCOC(=O)Nc1sc2c(c1C(N)=O)CCC(C)C2 (configuration not stated) | 0.09 | 0.12
53 | Cc1ncc(CSc2ccccn2)c(CO)c1O | · | -1.11
54 | CCCc1c(C)nc2ncnn2c1Nc1cc(Cl)c(OC)cc1OC | -0.22 | -0.8
55 | O=C1CCCc2cc(S(=O)(=O)Nc3ccc(F)cc3)ccc2N1 | -1.09 | ·
56 | CC(C)(C)c1ccc(C2/C(=C(\O)c3ccccc3)C(=O)C(=O)N2Cc2cccnc2)cc1 (configuration not stated) | 0.92 | -0.63
57 | COc1ccccc1N1C(=O)C(C(C)=O)C2C1Nc1ccccc1N2C (configuration not stated) | · | -0.53
58 | O=C(Nc1cccc(Br)c1)C1CCN(S(=O)(=O)c2cccc3nonc23)CC1 | 1.98 | ·
59 | Cc1cc(C)c(S(=O)(=O)N2CCN(c3cc(N4CCCC4)nc(C)n3)CC2)c(C)c1 | 0.32 | 0.52
60 | COc1ccc(S(=O)(=O)Nc2nc(C)cc(C)n2)cc1 | 1.36 | -1.59

Next part.
entry | Structure | TAR Tat displ | CDC25B CDK2 inh
61 | CN1CCN(C(=O)CN2C(=O)CSc3cccn3-c3ccccc32)CC1 | 1.04 | ·
62 | CCCCNC(=O)c1onc(C)c1Cl | -0.43 | -2.28
63 | COc1ccc(NC(=O)CSCc2cc(=O)n3c4c(sc3n2)CCCC4)cc1 | 0.6 | ·
64 | Cc1cc2c(cc3c(=O)n(CCCC(=O)NC(C)(C)C)nc(C)n32)o1 | 0.64 | -1.83
65 | CN1CCC(c2cccs2)=N1 | · | -1.14
66 | COC(=O)CSC1=C(C#N)C(c2ccco2)C(C(=O)Nc2ccc(Cl)cc2)=C(C)N1 (configuration not stated) | 15.8 | -1.22
67 | O=C(CCCn1c(=O)c2cccn2c2ccccc21)N1CCN(C2CCCCC2)CC1 | 1.15 | ·
68 | c1ccc2c(c1)nc(NCc1ccncc1)c1nncn12 | -0.15 | -1.26
69 | O=C1C2N=NN(Cc3ccccc3)C2C(=O)N1c1ccccc1Cl (configuration not stated) | -1.05 | 0.34
70 | COc1ccc(Cl)cc1NCc1c(CO)cnc(C)c1O | 1.68 | ·
71 | O=C(NCCCN1CCOCC1)c1[nH]nc2c1COc1ccccc1-2 | -0.62 | ·
72 | O=c1c2c(nc3nc(NCc4cccs4)[nH]n13)CCC2 | -0.61 | -0.98
73 | Cc1[nH]c2ccccc2c(=O)c1CN1CCOCC1 | -0.66 | -2.19
74 | Clc1ccc(OCc2nn[nH]n2)c(Cl)c1 | · | -0.3
75 | COC(=O)c1sc2cccc(F)c2c1S(=O)(=O)Nc1ccc(OC)cc1 | 0.62 | ·
76 | NC(=O)CSc1nc2c(c(=O)n1Cc1ccccc1)SCC2 | 0.67 | ·
77 | Cc1cc(C(F)(F)F)nc(Nc2nc(C)c3ccccc3n2)n1 | · | -2.06
78 | CC1=C(c2ccc(C)c(C)c2)S(=O)(=O)N=C1Nc1cc(F)ccc1F | 0.55 | -2.18
79 | COc1cc2ccccc2cc1C(=O)Nc1ccc2c(c1)C(=O)c1ccccc1C2=O | · | -2.66
80 | CCOC(=O)C(=CNc1nc(-c2cc(C#N)c(=O)[nH]c2C)cs1)C(=O)OCC | · | 0.83

The results go on.
entry | Structure | TAR Tat displ | CDC25B CDK2 inh
81 | Cc1ccc(S(=O)(=O)N(CCS(=O)(=O)N2CCNCC2)CC(C)c2ccccc2)cc1 (configuration not stated) | 1.18 | ·
82 | Cc1ccc(NS(=O)(=O)c2ccc(-n3cccn3)cc2)cc1Cl | 0.1 | ·
83 | N/C(=N\S(=O)(=O)c1cc(C(F)(F)F)cc(C(F)(F)F)c1)c1cccnc1 | · | -2.86
84 | CCCCNC(=O)n1ccc(-c2nn(-c3ccc(F)cc3)ccc2=O)n1 | · | -0.9
85 | CCc1ccc(C2c3c(n[nH]c3C)C(=O)N2c2ccc(Br)cc2)cc1 (configuration not stated) | 2.27 | ·
86 | CCCC(=O)Nc1nnc(SCc2cc(=O)n3nc(C)sc3n2)s1 | 1.93 | ·
87 | Cn1c(-c2ccc(Cl)cc2)cnc1SCC(=O)N1CCc2ccccc21 | -1.05 | ·
88 | O=C1/C(=C/c2ccc3c(c2)OCO3)CCC/C1=C\c1ccc2c(c1)OCO2 | · | -0.93
89 | CSc1cccc(NC(=O)CSc2nncn3c2cc2occc23)c1 | 1.04 | ·
90 | Cc1nn(CCCC(=O)NCCCN2CCCC2=O)c(=O)c2c1sc1ccccc12 | 1.19 | -1.68
91 | COc1ccc(CCn2nnc3ccccc3c2=O)cc1OC | · | -2.09
92 | Cc1ccc(N2C(=O)C3ON(c4ccccc4)C(c4ccccc4O)C3C2=O)cc1 (configuration not stated) | 0.14 | -1.24
93 | Cc1ccc(CNC(=O)C2CCN(C(=O)c3cc4sccc4n3C)CC2)cc1 | · | 0.45
94 | COc1cc(C2Nc3cccc4cccc(c34)N2)ccc1OCc1ccccc1 | 0.66 | -3.08
95 | CC1CCCC(NC(=O)Cn2c(=O)oc3cc(S(=O)(=O)N4CCCCCC4)ccc32)C1C (configuration not stated) | · | -0.88
96 | CC(CCC(=O)O)[C@H]1CCC2C3CC[C@@H]4C[C@H](O)CC[C@]4(C)C3C[C@H](O)[C@@]21C (some centres not stated) | 2.28 | ·
97 | Cc1ccc(C)c(CSCc2nc3ccccc3[nH]2)c1 | 2.01 | -0.48
98 | Cc1nc2cc(-c3ccccc3)nn2c(C)c1CCC(=O)NC(C)CCc1ccco1 (configuration not stated) | · | 1.06
99 | CC(C)n1c(=O)c2c3c(sc2n(Cc2ccccc2)c1=O)COC(C)(C)C3 | 0.16 | -1.8
100 | CSc1ccc(Br)cc1 | · | 0.3

(next part)
entry | Structure | TAR Tat displ | CDC25B CDK2 inh
101 | COc1ccccc1CN1CCc2nc(N3CCCC3)ncc2C1 | 0.44 | ·
102 | COc1ccc(S(=O)(=O)NC(c2nnc(-c3ccccc3)o2)c2ccccc2Cl)cc1 (configuration not stated) | 0.36 | ·
103 | Cc1c(C)c(C)c(CSCC(=O)NN)c(C)c1C | · | -0.88
104 | O=C1c2ccccc2C(O)N1Cc1ccccc1 (configuration not stated) | 2.24 | -0.19
105 | CC1CCc2onc(C(=O)N3CCN(c4ccc(Cl)cc4)CC3)c2C1 (configuration not stated) | 0.23 | ·
106 | O=C(NC1CCCCCCC1)C1CCC(CNc2c(N3CCCCC3)c(=O)c2=O)CC1 (configuration not stated) | · | -1.64
107 | COc1ccc(NS(=O)(=O)c2cn(C)c(C)n2)cc1 | 2.37 | ·
108 | Cc1cc(C)cc(NC(=O)Nc2ccc(N3CCCCC3)cc2)c1 | · | 0.5
109 | Cc1nc2c(C)cccn2c(=O)c1Cc1nnc(SCC(=O)Nc2ccc3c(c2)OCCO3)n1C | 0.16 | -0.72
110 | CN1C(=O)c2cc(C(=O)NCCc3cccs3)nn2CC1(C)C(=O)NC1CCCCC1 (configuration not stated) | 1.02 | ·
111 | O=C(Oc1ccc2c(c1)oc(=O)c1ccccc12)C1CCCCC1 | 1.23 | -0.87
112 | C=CCn1c(SCC(=O)c2ccccc2F)nc2sc(C)c(C)c2c1=O | -0.56 | -15.9
113 | CN1C(=O)c2ccccc2C(C(=O)Nc2ccc3c(c2)OCO3)C1c1cccs1 (configuration not stated) | -1.09 | -0.92
114 | O=C(CCc1nnc2ccc(NCc3ccc(F)cc3)nn12)Nc1ccc2c(c1)OCO2 | 0.62 | ·

Source: PubChem BioAssay (Center for Chemical Genomics, University of Michigan)

Rows are unselected; 0.9% or so of the library scored in one or more.
